High-throughput results (PubChem BioAssay)
HCMV UL50-53 inh: cytomegalovirus nuclear egress complex inhibition | AID 1918969 | inhibition, % (test concentration not listed) | hit rate 0.15% among 190,000 | HTRF UL50-UL53 interaction, normalized percent inhibition;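 active = both replicates at 50% or more, plus weaker picks with an unusually low signal ratio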;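 note: stock transfer was 100 nL into about 20 µL; 0% = negative control wells and 100% = wells with untagged competitor protein; inactives centre near -12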
GIV Gai3 FP: blocks GIV peptide binding to rat Galpha-i3; P08753; Galpha-i3/FITC-GIV peptide fluorescence polarization, 90 min; hits give low values; scaled: aluminum fluoride 0%, vehicle 100%; percent of control (FP), % (test concentration not listed); hit rate 0.42% among 210,000; AID 1224905;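 active = replicate mean at 85% of control or lower, very high polarization wells dropped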;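 note: wells of about 15 µL received 100 nL stock; the first replicate is given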
Target sequence (P08753 whole entry, looked up): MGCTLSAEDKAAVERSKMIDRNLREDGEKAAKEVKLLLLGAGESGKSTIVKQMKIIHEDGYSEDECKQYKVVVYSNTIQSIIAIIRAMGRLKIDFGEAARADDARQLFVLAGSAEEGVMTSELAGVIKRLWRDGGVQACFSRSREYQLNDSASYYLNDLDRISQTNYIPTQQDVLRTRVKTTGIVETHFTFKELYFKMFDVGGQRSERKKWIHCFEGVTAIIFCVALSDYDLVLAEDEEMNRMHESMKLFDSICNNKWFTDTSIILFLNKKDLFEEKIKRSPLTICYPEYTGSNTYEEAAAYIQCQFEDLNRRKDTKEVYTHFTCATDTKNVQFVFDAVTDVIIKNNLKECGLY
Sa growth 42C: inhibitors of Staphylococcus aureus growth at 42 °C; relative growth, % (no concentration beside the values); hit rate 0.53% among 170,000; S. aureus RN4220 growth, OD600, 20 h; hits give low values;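 active = growth at 42 °C up to 50% and 20 or more points under that at 30 °C, or under 10% at both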;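 note: 300 nL library stock went into each well; scaled to the means of positive and negative controls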
Sa growth 42C second temp: recorded beside Sa growth 42C, whose call it bears; relative growth, %; measured here: growth at 30 °C;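 optical density after 20 h as mean of two plates; 100% = untreated growth and lower means inhibition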
* marks the source's active call; other numbers are inactive results; x = no result given; & = joins results of further samples.

cpd	structure	GIV Gai3 FP	HCMV UL50-53 inh	Sa growth 42C second temp	Sa growth 42C
1	Cc1nnc2c(N3CCOCC3)nc3ccccc3n12	101	-4	88	104
2	COc1ccc(S(=O)(=O)N2CCCCCC2)cc1C(=O)OC(C)C(N)=O (stereo not drawn)	x	-8	91	68
3	COc1cccc(NC(=O)Nc2ccc3snnc3c2)c1	106	-12	23	37
4	COc1ccc(C2=NNC(=O)c3ccccc3C2)cc1	102	x	82	75
5	CC1CCN(C(=O)Cn2c(=O)c3ccccc3n3c(=S)sc(-c4ccc(F)cc4)c23)CC1	135	-14	x	x
6	CCOC(=O)c1c(C)[nH]c(C)c1C(=O)COC(=O)c1ccncc1	x	-24	94	96
7	CSc1nc2ccc(S(=O)(=O)Nc3ccc4c(c3)COC4=O)cc2s1	106	-12	82	107
8	O=C(Nc1cccc(S(=O)(=O)c2cccc(NC(=O)C3CCCO3)c2)c1)C1CCCO1 (stereo not drawn)	100	-20	81	109
9	O=C(C1CCNCC1)N1CCCCC1	94	-13&-3	97	90
10	c1ccc(OCCCn2c(C3CCCO3)nc3ccccc32)cc1 (stereo not drawn)	104	-7	x	x
11	CCCN1C(=O)NC(CCC(=O)O)C1=O (stereo not drawn)	100	-15	76	92
12	COc1ccc(Nc2ncnc3c2nc2n3CCCC2)cc1OC	98	-1	x	x
13	COc1ccc(C(=O)N(Cc2cc(OC)c(OC)c(OC)c2)CC2CCCO2)cc1 (stereo not drawn)	101	-15	84	99
14	Cc1cc(C(F)(F)F)cc(S(=O)(=O)CCOC(=O)c2cccc(Cl)c2)n1	106	-12	82	94
15	CN(Cc1ccccc1)C(=O)c1cc2c(=O)oc3ccccc3c2n1C	108	-15	x	x
16	Cc1c2cnn(CC(=O)O)c(=O)c2c(C)n1Cc1ccccc1F	106	x	89	108
17	Cc1ccsc1-c1ncnn1-c1ccccc1	98	-9	99	110
18	O=C(O)C1=NN(C2CCS(=O)(=O)C2)C(=O)CC1 (stereo not drawn)	105	-17	96	95
19	CCOC(=O)c1c(NC(=O)CSc2nc(N)cc(=O)[nH]2)sc2c1CCCCC2	112	-1	74	107
20	Cc1ccc(OCC(=O)NCC(c2ccc(Cl)cc2)N2CCOCC2)cc1C (stereo not drawn)	107	-20	79	108
21	CC(=O)N1CCC(N(C(=O)c2ccc(F)cc2)c2ccc3c(c2)OCO3)CC1	104	-28	75	84
22	O=C(O)C(C(=O)OCc1ccccc1)c1ccccc1 (stereo not drawn)	101	-2	87	99
23	Cc1cc2c(cc1S(=O)(=O)CCC(=O)NCCc1ccccc1)OCC(=O)N2	100	x	94	88
24	CC1(C)Cc2c(sc3nc(CCCc4ccccc4)n(N)c(=O)c23)CO1	102	x	85	103
25	CN(CCCNC(=O)c1c2c(nc3ccccc13)C(=O)N(C1CCCCC1)C2)c1ccccc1	99	6	x	x
26	O=C(CSc1nc(N2CCCCC2)nc(N2CCCCC2)n1)Nc1ccccc1	103	5	97	99
27	O=S1(=O)c2ccccc2S(=O)(=O)N1Cc1ccccc1Cl	100	-8	x	x
28	O=C1CC(c2ccccc2)C(=O)N1c1ccc(F)cc1 (stereo not drawn)	108	-24	91	118
29	CCOc1ccc(-c2cccc(NS(=O)(=O)c3ccccc3C(F)(F)F)c2)nn1	106	x	80	94
30	CC1CN(C(=O)CCSc2ccc(Cl)cc2)CC(C)O1 (stereo not drawn)	x	17	99	92
31	CCOC(=O)N1CCN(C(=O)c2oc3ccc(S(=O)(=O)N(CC)CC)cc3c2C)CC1	103	-16	93	93
32	N#Cc1cccnc1N1CCC(C(N)=O)CC1	98	2	97	119
33	O=C(CSc1ncccc1C(=O)O)c1cc2ccccc2o1	107	-86	85	115
34	Cc1ccc(CCNC(=O)CCCn2c(=O)c3ccccc3n(Cc3ccccc3C#N)c2=O)cc1	106	-2	87	105
35	CN(C(=O)c1cc2c(n(-c3ccccc3)c1=O)CCCC2=O)c1ccc(O)cc1	109	-30	79	86
36	COc1ccccc1CNC(=O)c1cc(-c2ccc(F)cc2)nc2n[nH]c(-c3ccccc3)c12	99	-37	x	x
37	CCc1ccc(NC(=O)Cn2c(=O)oc3cc(S(=O)(=O)N4CCCCCC4)ccc32)cc1	102	-16	60	126
38	O=C(c1ccc2c(c1)C(=O)N(Cc1ccco1)C2=O)N1CCN(c2ccccc2)CC1	x	-31	83	70
39	COc1ccc2[nH]c(C(=O)Nc3cccc(C)n3)cc2c1	107	1	64	107
40	O=C(Cn1nc(C(F)F)cc1C1CC1)N1CCCC1	102	-7	85	125
41	Cc1[nH]c2ccc(C(=O)OCC(=O)Nc3nnc(-c4ccccc4)o3)cc2c1C	x	-21	26	74
42	CC1CCCCN1C(=O)c1cc(-c2ccccc2)on1 (stereo not drawn)	104	3	83	112
43	CCCCC(=O)Nc1ccc2c(c1)nc(CN1CCOCC1)n2C(C)C	96	-8	x	x
44	CC(=O)N1CCC2(CC1)OC(=O)C(C)=C2C(=O)NCc1ccccc1Cl	104	x	97	102
45	O=C(CN(c1ccc(Cl)c(C(F)(F)F)c1)S(=O)(=O)c1ccccc1)NCCSc1ccccn1	100	-1	x	x
46	O=C(NCC(c1cccs1)S(=O)(=O)c1ccccc1)c1ccc(C(F)(F)F)cc1 (stereo not drawn)	98	x	97	101
47	COC(=O)c1cc2sc(C)cc2n1CC(=O)Nc1ccc(C)cc1Cl	105	-25	85	140
48	Cc1ccc(C)c(Cn2c(=O)n(-c3ccc(F)cc3)c(=O)c3sc4ccccc4c32)c1	95	-18	91	108
49	CCn1c(SCc2nc(-c3ccc(Cl)cc3)no2)nnc1-c1ccco1	106	4	44	84
50	CCOC(=O)c1c(NC(=O)Cc2cccs2)sc(C(=O)Nc2cc(C(F)(F)F)ccc2Cl)c1C	98	-15	x	x
51	CCCNC(=O)CCc1c(C)nc2c(c(C)nn2-c2ccc(C)cc2)c1C	114	8	96	99
52	COc1ccc(S(=O)(=O)N(CC(=O)N2CCOCC2)Cc2ccccc2)cc1C	99	4	100	110
53	COc1ccc(NC(=O)[C@@H](c2ccccc2)N2Cc3ccccc3C2=O)cc1OC	101	-11	79	117
54	O=C(Cn1c(=O)oc2cc(S(=O)(=O)NCc3ccccc3)ccc21)N1CCCCCC1	99	-14	92	93
55	COC(=O)c1ccccc1NC(=O)c1nn(C)c2c1COc1ccccc1-2	101	-10	87	84
56	Cc1ccc(-n2nc(CO)c(C(=O)NCc3cccs3)n2)cc1C	100	-2	94	102
57	CCc1c(-c2ccccc2)nc2ccccc2c1C(=O)NCCc1ccccc1	98	x	77	131
58	Cc1cc(C)c(C(N)=O)c(NCCc2ccccc2)n1	x	-14	82	125
59	Cc1cc(C)c2cc3c(cc2n1)CCN3CC(O)CO (stereo not drawn)	-26*	-53	83	88
60	C=CCn1c(SCc2ccc(C)cc2)nc2c(-c3ccccc3)cn(C)c2c1=O	105	-32	x	x

Quoted from the listing (four entries):
cpd	structure	GIV Gai3 FP	HCMV UL50-53 inh	Sa growth 42C second temp	Sa growth 42C
1	Cc1nnc2c(N3CCOCC3)nc3ccccc3n12	101	-4	88	104
2	COc1ccc(S(=O)(=O)N2CCCCCC2)cc1C(=O)OC(C)C(N)=O (stereo not drawn)	x	-8	91	68
3	COc1cccc(NC(=O)Nc2ccc3snnc3c2)c1	106	-12	23	37
4	COc1ccc(C2=NNC(=O)c3ccccc3C2)cc1	102	x	82	75

Following part
cpd	structure	GIV Gai3 FP	HCMV UL50-53 inh	Sa growth 42C second temp	Sa growth 42C
61	Cc1ccc2nc(N3CCN(c4ccccc4F)CC3)c3nnnn3c2c1	103	x	95	107
62	COc1ccc(NC(=O)CC2C(=O)N(c3ccc(OC)cc3)C(=O)N2CCC2=CCCCC2)cc1 (stereo not drawn)	97	-21	86	108
63	COc1ccc(-n2nc(C(=O)Nc3ccc(Br)cc3C)c(=O)n(C)c2=O)cc1	101	-30	x	x
64	OCCC12CC3CC(CC(CO)(C3)C1)C2	x	-9	97	86
65	CCOC(=O)CCc1c(C)nc2nc(CO)[nH]n2c1=O	109	-2	x	x
66	Cc1cc(Cl)ccc1NC(=O)c1cc2ccccn2n1	96	x	90	101
67	c1ccc2c(Nc3ccc4c(c3)OCCO4)c3c(nc2c1)CCC3	110	-11	67	78
68	N#C/C(=C(/O)CN1CCN(Cc2ccccc2)CC1)c1nc2ccccc2c(=O)[nH]1	x	-22	85	85
69	O=C(Sc1cccc2ncccc12)c1ccccc1	x	1	26	18
70	O=C(OC1CCOC1=O)c1ccc2c(c1)S(=O)(=O)c1ccccc1C2=O (stereo not drawn)	x	-167	91	80
71	ONC(=Nc1ccccc1Cl)c1ccccc1Cl	105	2	81	85
72	CC(=O)Nc1ccc(-c2cnc[nH]2)cc1	108	x	88	85
73	COc1ccc(NC(=O)CCc2c(C)nn(-c3cc(N4CCCC4)ncn3)c2C)cc1	99	4	x	x
74	O=C1CC(Nc2ccc(F)cc2)C(=O)N1C1CCCC1 (stereo not drawn)	102	-24	94	106
75	O=C(NCC1CCCO1)c1ccc2c(=O)n(-c3ccccc3)c(=S)[nH]c2c1 (stereo not drawn)	106	x	87	108
76	CC(C)OCCCn1c(SCc2cccc(Br)c2)nc2c(sc3ccccc32)c1=O	103	x	93	77
77	CCN(CC)S(=O)(=O)c1ccc2oc(SCc3cn4ccsc4n3)nc2c1	x	-27	101	121
78	CCOc1ccc(S(=O)(=O)Nc2c(C)n(C)n(-c3ccccc3)c2=O)cc1-c1nc(C(C)C)no1	104	-3	x	x
79	FC(F)(F)c1ccc(-c2nnc(C3CC3)o2)cc1	100	-3	106	104
80	Cc1cccc(NC(=O)NCC2CC2)c1	104	-21	94	94
81	CN1CCN(c2cc(C(=O)O)c3cc(NS(=O)(=O)c4ccc(Br)cc4)ccc3n2)CC1	95	-51	x	x
82	N#CC1=C(N)Oc2cc(N)ccc2C1c1ccccc1 (stereo not drawn)	x	-7	90	87
83	Cc1cc(Nc2ccc(C(=O)N3CCN(c4ccccn4)CC3)cc2)n2ncnc2n1	100&100	-7&-33	93	83
84	Cc1[nH]nc2c1/C(=N\O)CC(c1ccccc1)C2 (stereo not drawn)	x	-29	90	97
85	Cc1ccc(/C=C/C(=O)Nc2ccc(-c3nnc4n3CCCCC4)cc2)o1	x	-77	94	68
86	O=C(CN1c2ccc(Br)cc2-c2ccccc2S1(=O)=O)Nc1ccc(F)cc1F	104	-6	x	x
87	O=C(c1cccnc1)N1N=C(c2cccs2)CC1c1ccc(F)cc1 (stereo not drawn)	104	-41	x	x
88	O=C(O)CNC(=O)C1CCCCC1	x	-12	90	121
89	O=C(CSc1oc(-c2ccco2)nc1S(=O)(=O)c1ccc(Cl)cc1)c1ccc(Cl)cc1	101	-7	94	92
90	CCCN(CCC)C(=O)CSc1nc2ccccc2c(=O)n1C1CCCC1	101	6	89	102
91	Cc1ccccc1CN1CCCN(CC(=O)Nc2c(C)cccc2C)S1(=O)=O	97	x	89	77
92	Cc1cc(=O)[nH]c2c(C)c(Cl)ccc12	106	3	71	105
93	N#C/C(=C\c1ccc(C(F)(F)F)cc1)c1csc2ccccc12	100	-42	86	84
94	CCOC(=O)C1=C(CN2c3ccccc3CC2C)NC(=O)NC1c1ccccc1 (stereo not drawn)	102	0	83	108
95	N#C/C(=C/c1ccc(-c2cccc(C(F)(F)F)c2)o1)C(=O)OC1CCCCC1	106	-40	88	113
96	CN(Cc1nc2ccccc2n1C)CC1CCCCC1	100	13	76	90
97	COc1ccc(Cl)cc1NC(=O)Nc1nnc(SCc2cc(=O)n3oc(C)cc3n2)s1	105	-18	x	x
98	C=CCn1c(=O)/c(=C\c2cccs2)s/c1=C(/C#N)C(=O)N1CCCC1	x	-63	83	96
99	NC(=O)c1ccccc1NC(=O)CC1(CC(=O)O)CCCC1	x	4	96	85
100	Cc1nnc(N2CCCC(C(=O)NCc3ccccc3)C2)c2nn(-c3ccccc3)c(C)c12 (stereo not drawn)	106	x	89	100
101	O=S(=O)(CCSc1ccc(C(F)(F)F)cn1)c1ccc(OC(F)(F)F)cc1	98	-15	92	89
102	COc1cc(C2C(C#N)=C(N)Oc3c2c(C)nn3-c2ccccc2)cc(OC)c1OC (stereo not drawn)	100	7	x	x
103	COC(=O)c1cc(S(=O)(=O)N2CCCCC2C)c[nH]1 (stereo not drawn)	101	14	99	116
104	O=C(O)CSc1nc(-c2ccccc2)cc(C(F)F)n1	99	-10	86	92
105	N#CCc1nc(-c2ccc(C(F)(F)F)cc2)cs1	143	-8	94	126
106	CCc1nc(-c2cc(S(=O)(=O)N3CCC(C(=O)Nc4ccc(OC)cc4)CC3)c(C)s2)no1	97	-11	x	x
107	CCC1CN(C(=O)Nc2cc(Cl)ccc2C(=O)OC)c2ccccc2S1 (stereo not drawn)	111	x	97	107
108	c1csc(C2=NC(c3ccncc3)=Nc3ccccc3N2)c1	106	-7	91	78
109	Cc1cc(N2CCN(c3cccc(C)c3C)CC2)n2cnnc2n1	103	24	99	81
110	Cc1ccccc1-c1nnc(SCC(=O)N2CCC(C)CC2)o1	101	-22	x	x
111	CCN1c2cc(C)ccc2-n2cccc2C12CCN(C(=O)c1ccccc1OC)CC2	99	-10	x	x
